Screening data (PubChem BioAssay)
CSC inhib = blocks cancer stem cells; cancer stem cell-like cells viability, luminescence; inhibition, % at 7.5 µM; 1.1% of 300,000 active;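 active = mean at 75% or more and at least half the replicates too; inconclusive = mean and replicates disagree; tested in HMLE shEcad cells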;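 also: 0% = median of negative and 100% = median of positive control wells; the first replicate is given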
MT1-MMP act inh = inhibitors of human MT1-MMP activation; P50281; HT1080 RFP-PRO-GFP cells, GFP/RFP ratio fluorescence, overnight; percent of plate control window, DMSO zero; GFP/RFP ratio change, % at 20 µM; 0.061% of 360,000 active;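 active = GFP/RFP ratio change of at least 30% with cell ATP level not reduced by more than half and red fluorescence within 50% of control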; also: strong numbers were not always called active
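Material: RFP-PRO-GFP reporter HT1080 cells. Dosing: single-point 20 µM compound, 1% DMSO. Controls: DMSO and RFP-L50D-GFP cell wells. Timing: cells overnight before dosing, compound overnight, 37 °C, 5% CO2. Measure: GFP/RFP fluorescence ratio.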
Env fusion inh = blocks HIV Env-driven cell-cell fusion. AID 651610. inhibition, % at 12.3 µM. HeLa-JRFL Env/CEM21 cell fusion, luciferase. 1.1% of 360,000 active;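 active = mean replicate inhibition score of at least 50 and every replicate individually at or above 50; inconclusive = only one of the two criteria met; inactive = mean below 50 and not all replicates reaching 50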;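 also: 0% = plate neutral controls and 100% = maraviroc near 300 nM; one replicate is shown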
PABP FP inh = PABP-poly(A) binding inhibition. PABP-poly(A) RNA binding, fluorescence polarization. inhibition, % at 35 µM. AID 2014. 1% of 290,000 active;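 active = 50% or more with normal probe brightness, or confirmed in later tests; inconclusive = above 50% with abnormal brightness, or retests that disagree; inactive = below 50% or failed in later tests; about a fifth of its hits are not listed in these tables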;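 also: calls also rest on retests at 20 µM and on dose response follow-up; controls were probe without protein and protein plus probe with vehicle; some compounds called inactive have numbers as strong as hits; many hits fall short of the cut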
Target sequence (P11940 whole entry, looked up): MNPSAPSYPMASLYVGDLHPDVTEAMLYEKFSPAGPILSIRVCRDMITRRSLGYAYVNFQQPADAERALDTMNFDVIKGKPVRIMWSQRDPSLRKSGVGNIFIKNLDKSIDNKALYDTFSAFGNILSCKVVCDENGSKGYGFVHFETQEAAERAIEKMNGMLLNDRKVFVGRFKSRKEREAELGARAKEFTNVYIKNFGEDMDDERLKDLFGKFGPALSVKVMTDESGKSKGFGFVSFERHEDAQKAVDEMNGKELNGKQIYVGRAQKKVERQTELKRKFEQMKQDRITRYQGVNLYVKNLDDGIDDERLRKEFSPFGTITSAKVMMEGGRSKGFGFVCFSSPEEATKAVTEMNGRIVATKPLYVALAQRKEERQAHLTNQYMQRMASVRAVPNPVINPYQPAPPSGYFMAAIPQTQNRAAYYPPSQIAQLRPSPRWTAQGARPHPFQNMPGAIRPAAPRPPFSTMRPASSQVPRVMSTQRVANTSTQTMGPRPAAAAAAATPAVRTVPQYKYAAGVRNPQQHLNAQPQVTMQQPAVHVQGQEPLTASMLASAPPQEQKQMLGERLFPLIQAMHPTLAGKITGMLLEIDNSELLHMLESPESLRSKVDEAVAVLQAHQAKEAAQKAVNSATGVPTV
eIF4H FP inh = inhibitors of RNA binding by human eIF4H. eIF4H fluorescence polarization binding assay. inhibition, % at 35 µM. 0.94% of 290,000 active. AID 2012;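 active = 50% or more with normal probe brightness, or confirmed in later tests; inconclusive = above 50% with abnormal brightness, or retests that disagree; inactive = below 50% or failed in later tests; about a fifth of its hits are not listed in these tables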;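 also: calls also rest on retests at 20 µM and on dose response follow-up; 0% = protein and probe with vehicle and 100% = probe without protein; strong numbers were not always called active; many hits fall short of the cut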
UUG fidelity = modulators of start codon recognition fidelity in yeast; activity score, % at 18.7 µM; S. cerevisiae UUG-firefly luciferase reporter, luminescence/redox ratio; 0.13% of 350,000 active;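 active = replicate mean at a twofold rise or more, about +100% in these data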;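 also: firefly luciferase made from a UUG start codon reports start codon fidelity; reporter light over untreated wells divided by growth signal over untreated wells; some hits fall short of that in this replicate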
Rce1 inh = blocks yeast Ras-converting enzyme | Q03530 | yeast membranes, quenched prenylated peptide cleavage fluorescence | calls only | 0.27% of 290,000 active;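 active = fall in fluorescence gain of 50% or more versus controls, with final raw signal at or below 3038400; inconclusive = same 50% fall but final raw signal above 3038400; inactive = fall in fluorescence gain under 50%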;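 also: plate controls were neutral control wells for no effect and wells lacking membranes for full effect; tested at 10 µM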
MT1-MMP act inh RFP = also measured in MT1-MMP act inh; calls as there; RFP signal change, %; measured here: RFP expression control read;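 0 = vehicle wells; hits needed this value within 50% of zero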
Numbers without * were called inactive; i = inactive; ? = inconclusive; · = no result given.

1	CCOC(=O)C1CCN(S(=O)(=O)c2ccc3c4c(cccc24)C(=O)N3CC)CC1
2	Cc1nnc(NC(=O)CSc2nnnn2Cc2ccccc2)s1
3	CCOC(=O)C1=C(CN2CCc3ccccc32)NC(=O)NC1c1ccc(Cl)cc1 (stereo not given)
4	CCOC(=O)Cc1csc(NC(=O)c2ccc(Cl)s2)n1
5	COc1ccc(CCCNC(=O)C2Cc3c(-c4cccc(NC(C)=O)c4)ccnc3O2)cc1 (stereo not given)
6	O=C(O)c1cnn(-c2nc(-c3cccc([N+](=O)[O-])c3)cs2)c1C(F)(F)F
Compound,1,2,3,4,5,6
CSC inhib,-2.6,3.2,45.0,-2.7,·,4.4
MT1-MMP act inh,8.5,1.6,-8.1,-18.0,-0.4,1.2
MT1-MMP act inh RFP,1.5,7.5,-8.4,-27.7,-21.2,2.5
Env fusion inh,-6.4,·,58.0*,-20.5,-71.2,-12.8
PABP FP inh,·,2.5,15.1,-1.0,·,-0.7
eIF4H FP inh,·,-3.8,-8.7,6.1,·,-4.1
UUG fidelity,-9.2,8.6,-11.1,-0.9,-2.0,5.2
Rce1 inh,·,i,i,i,·,i

7	CCCc1[nH]n(-c2ccc(F)cc2)c(=O)c1C=NCC1CCCO1 (stereo not given)
8	COC(=O)c1ccccc1NC(=O)CSc1ccc(C)cc1
9	COc1ccc(OC)c(NC(=O)NC2CCCc3ccccc32)c1 (stereo not given)
10	CCOc1ccc(/C=N/NC(=O)c2cc3c(OC)cc(OC)c(OC)c3[nH]2)cc1
11	O=S(=O)(Cc1ccccc1)NC1c2ccccc2Oc2ccccc21
12	CCOc1ccc(S(=O)(=O)Nc2ccc(C(=O)N3CCC3)cc2)cc1
Compound,7,8,9,10,11,12
CSC inhib,-10.8,-4.1,-3.7,37.8,·,-9.8
MT1-MMP act inh,1.2,2.5,-2.0,8.3,2.9,-1.8
MT1-MMP act inh RFP,2.3,-2.7,-6.6,-6.9,8.4,-6.3
Env fusion inh,-1.4,-26.7,4.2,-2.6,0.5,·
PABP FP inh,-0.8,6.5,1.2,4.3,·,·
eIF4H FP inh,-3.5,3.8,-3.8,2.4,·,·
UUG fidelity,0.3,22.2,-12.3,-11.9,-8.5,·
Rce1 inh,i,i,i,i,·,i

13	CN1CCOCCOc2ccccc2OCCOCC1
14	CCCn1c2ccc(C)cc2c2n[nH]c(=S)nc21
15	COc1ccc(-n2cnc3cc(NS(=O)(=O)c4ccc(C)cc4)ccc32)cc1
16	O=C(CSc1ccc([N+](=O)[O-])cc1)Nc1ccccc1N1CCOCC1
17	CCc1nnc(NC(=O)CN2CCN(c3ccccc3OC)CC2)s1
18	Cc1n[nH]c(C)c1S(=O)(=O)N(CC(=O)NC1CCCC1)c1ccc(C(C)C)cc1
Compound,13,14,15,16,17,18
CSC inhib,-9.4,-6.2,3.5,-6.5,-11.7,-22.9
MT1-MMP act inh,-1.3,-0.2,-0.8,2.7,-1.1,·
MT1-MMP act inh RFP,2.2,-4.6,-7.7,-0.9,2.5,·
Env fusion inh,-10.0,13.0,·,1.9,·,86.1*
PABP FP inh,·,3.0,1.2,·,5.7,-6.0
eIF4H FP inh,·,-7.9,2.6,·,-5.2,-4.9
UUG fidelity,-14.9,-19.9,-17.4,-17.2,-4.9,-7.0
Rce1 inh,i,i,·,·,i,i

19	Cc1cc(C)n2nc(SCC(=O)c3cccs3)nc2n1
20	CCN(Cc1ccc(NC(C)=O)cc1)CC1CCCN(CCc2cccc(F)c2)C1 (stereo not given)
21	Cc1cc(C)cc(NC(=O)N2CCNC(=O)C2CC(=O)Nc2cc(Cl)ccc2Cl)c1 (stereo not given)
22	CCCCNC(=O)NS(=O)(=O)c1ccc(NC(=O)CCC(=O)c2cccs2)cc1
23	COc1cccc(CN(C)CC(=O)NCc2ccccc2Cl)c1
24	COc1ccc(NC(=O)CN(C)C(=O)c2cc3c(s2)CCCCC3)cc1
Compound,19,20,21,22,23,24
CSC inhib,-11.5,-5.0,11.6,-2.1,-11.1,1.6
MT1-MMP act inh,2.5,1.3,9.0,-1.3,-3.0,1.4
MT1-MMP act inh RFP,6.6,3.1,4.0,-0.5,-0.9,2.1
Env fusion inh,-4.0,-44.2,11.5,16.0,-17.9,-0.1
PABP FP inh,-7.8,4.0,-3.4,6.7,-8.3,-5.4
eIF4H FP inh,-9.0,7.0,-10.7,-16.3,-5.5,-14.7
UUG fidelity,-24.1,-6.0,4.2,-1.0,-22.5,7.1
Rce1 inh,i,i,i,i,i,·

25	NC(=O)c1ccccc1NC(=O)COC(=O)CSCc1cccc(Cl)c1
26	Cc1ccc(F)c(S(=O)(=O)NC(=O)C2(C)CCN2C(=O)Cc2ccccc2)c1 (stereo not given)
27	C/C(=N\NC(=O)c1ccncc1)c1cccnc1
28	COC(=O)CN(c1cc([N+](=O)[O-])ccc1OC)S(C)(=O)=O
29	S=c1[nH]nc(COc2cccc3ccccc23)n1Cc1ccccc1
30	CSc1ccc(/C=C(\NC(=O)c2ccccc2)C(=O)NN)cc1
Compound,25,26,27,28,29,30
CSC inhib,-10.9,·,-13.2,-4.2,15.7,-9.0
MT1-MMP act inh,1.3,3.3,-0.8,2.1,-4.5,1.5
MT1-MMP act inh RFP,3.3,8.7,2.9,4.0,-10.1,-0.5
Env fusion inh,1.0,-12.6,7.7,6.6,5.2,-5.4
PABP FP inh,·,·,6.2,-6.8,-1.9,-14.8
eIF4H FP inh,·,·,-13.0,-0.5,7.4,-4.7
UUG fidelity,-22.0,1.4,-15.9,·,-22.1,-16.8
Rce1 inh,·,·,i,i,i,·

31	O=C(NCC(=O)N1CCN(S(=O)(=O)c2ccccc2)CC1)c1ccc(Br)o1
32	COc1cc(NC(=S)N2CCC(C(N)=O)CC2)cc(OC)c1
33	Cc1ccc2cc(C)c(SCC(=O)Nc3ccc(S(=O)(=O)N4CCCC4)cc3)nc2c1
34	O=C(NC1CCN(S(=O)(=O)c2ccccc2)CC1)C1CCCCC1
35	CC(C)(C)CC(=O)Nc1cc(S(=O)(=O)N2CCCCCC2)ccc1Cl
36	C#CC1(NC(=O)NC(=O)c2c(F)cccc2F)CCCCC1
Compound,31,32,33,34,35,36
CSC inhib,·,8.4,-9.8,-9.1,·,-2.2
MT1-MMP act inh,2.0,4.6,-7.2,0.8,5.7,-1.2
MT1-MMP act inh RFP,4.6,7.4,-11.5,-0.3,-1.5,-0.5
Env fusion inh,·,24.2,-16.6,·,16.0,-0.2
PABP FP inh,·,-7.7,-7.6,-2.6,-1.7,7.6
eIF4H FP inh,·,-5.8,-0.6,-2.1,-4.0,-1.2
UUG fidelity,-18.2,·,·,14.9,·,·
Rce1 inh,i,i,?,i,i,i

37	COc1ccc(-c2cc(COc3ccccc3)on2)cc1
38	CC(C)OC(=O)CC(=O)CSc1nc2c(cc1C#N)CCC2
39	Cc1cc(=O)oc2cc(OCC(=O)NCc3ccncc3)ccc12
40	COc1ccc(C(=O)NCCc2c[nH]c3ccccc23)cc1[N+](=O)[O-]
41	Cc1cccc(C(=O)c2ccccc2C(=O)O)c1O
42	Cc1ncsc1CCOC(=O)C1C2CC3CC(C2)CC1C3 (stereo not given)
Compound,37,38,39,40,41,42
CSC inhib,12.8,-12.4,-3.9,9.7,-5.6,48.6
MT1-MMP act inh,0.4,-7.4,7.8,4.3,0.8,-1.4
MT1-MMP act inh RFP,3.6,-3.2,4.3,-0.5,0.2,-5.1
Env fusion inh,-14.3,-96.6,·,8.8,-2.4,?
PABP FP inh,3.3,13.7,11.6,-15.6,-8.9,7.3
eIF4H FP inh,10.7,15.7,12.0,-10.5,-8.9,9.9
UUG fidelity,·,-16.8,-16.5,-27.5,-22.0,-11.6
Rce1 inh,i,i,i,i,i,i

3 structures out of the list, arranged by SMILES length, highest first.
39	Cc1cc(=O)oc2cc(OCC(=O)NCc3ccncc3)ccc12
38	CC(C)OC(=O)CC(=O)CSc1nc2c(cc1C#N)CCC2
37	COc1ccc(-c2cc(COc3ccccc3)on2)cc1
Compound,39,38,37
CSC inhib,-3.9,-12.4,12.8
MT1-MMP act inh,7.8,-7.4,0.4
MT1-MMP act inh RFP,4.3,-3.2,3.6
Env fusion inh,·,-96.6,-14.3
PABP FP inh,11.6,13.7,3.3
eIF4H FP inh,12.0,15.7,10.7
UUG fidelity,-16.5,-16.8,·
Rce1 inh,i,i,i

Next section:
43	O=C(O)CCCC(=O)Nc1ccc(C(=O)N2CCCCC2)c(Cl)c1
44	CN(C)C(=O)CCc1ccc2c3c([nH]c2c1)[C@]1(C)[C@@H](C(=O)N2CCOCC2)C[C@H](CC(=O)NCCC2=CCCCC2)C(=O)N1CC3
45	O=[N+]([O-])c1cc([N+](=O)[O-])c(Oc2cncc(Cl)c2)cc1NC1CCCCCCC1
46	O=C(Cn1c(=O)oc2cc(S(=O)(=O)N3CCCCCC3)ccc21)NC1CCCCC1
47	CC(C)NC(=O)N(Cc1ccc(Cl)cc1)Cc1cccs1
48	O=C(Cc1cccc2ccccc12)Nc1nnc(-c2cccc([N+](=O)[O-])c2)s1
Compound,43,44,45,46,47,48
CSC inhib,-4.8,·,38.8,-5.2,-4.0,2.1
MT1-MMP act inh,7.8,-0.4,-3.4,0.5,-3.7,2.8
MT1-MMP act inh RFP,6.6,-0.5,1.4,-1.3,-0.4,-2.0
Env fusion inh,·,-8.6,4.3,-18.4,5.4,-10.2
PABP FP inh,-10.3,·,6.2,-4.0,-1.8,7.0
eIF4H FP inh,-5.8,·,-12.3,-1.5,-3.6,32.2
UUG fidelity,3.1,-0.7,-10.1,4.5,·,-20.0
Rce1 inh,i,·,i,i,i,i

49	Cn1c(CNC2CCCCC2)nc2ccccc21
50	CC(=O)N1CCC(=NNc2ncc(C(F)(F)F)cc2Cl)CC1
51	COc1ccc(CCNC(=O)Cn2c(=O)n(CC3CCCO3)c(=O)c3ccccc32)cc1OC (stereo not given)
52	CCOC(=O)N1CCC(NC(=O)c2ccc(CS(=O)c3cccc(Cl)c3)o2)CC1 (stereo not given)
53	O=C(NCc1ccon1)C1CCC(=O)N(Cc2cccc(C(F)(F)F)c2)C1 (stereo not given)
54	Cc1ccc(CNC(=S)Nc2ccc3c(c2)c(=O)n(C)n3Cc2cccc(C(F)(F)F)c2)cc1
Compound,49,50,51,52,53,54
CSC inhib,-5.0,-1.6,-11.0,-8.4,11.8,·
MT1-MMP act inh,-4.1,0.0,-1.5,2.0,-3.2,3.8
MT1-MMP act inh RFP,4.0,5.1,-6.0,0.0,2.2,-14.1
Env fusion inh,21.1,-1.1,7.3,-0.5,0.0,-1.4
PABP FP inh,-8.0,24.1,-10.0,-0.6,-0.8,·
eIF4H FP inh,4.7,-7.6,-6.7,-0.9,-2.1,·
UUG fidelity,·,·,·,-3.1,-13.9,-15.7
Rce1 inh,i,·,i,i,i,·

55	COc1cc(CO)cc(Br)c1OCC(=O)N1CCCCC1
56	O=C(Oc1ccc(NC2=NS(=O)(=O)c3ccccc32)cc1)c1cccnc1
57	O=C(NCc1ccc(Cl)cc1)c1cnn2ccccc12
58	COc1ccc(CNC(=O)c2cccnc2)cc1
59	CCOC(=O)c1ccc(N2C(=O)C3CCCN3C2=S)cc1 (stereo not given)
Compound,55,56,57,58,59
CSC inhib,-2.5,-10.3,·,4.2,·
MT1-MMP act inh,-0.6,6.4,-1.9,6.4,0.6
MT1-MMP act inh RFP,6.2,7.2,2.7,1.6,1.7
Env fusion inh,-209.1,-7.4,-34.3,-11.3,-23.9
PABP FP inh,6.1,-9.2,7.1,-1.9,·
eIF4H FP inh,-3.0,-2.1,-8.8,-6.9,·
UUG fidelity,-13.5,·,-18.8,-22.7,-19.8
Rce1 inh,i,i,i,i,·
